# HCMV UL50-53 inh – cytomegalovirus nuclear egress complex inhibition; inhibition, % (no concentration beside the values); 190,000 tested, 0.15% active; HTRF UL50-UL53 interaction, normalized percent inhibition;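 active = both replicates at 50% or more, plus weaker picks with an unusually low signal ratio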;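 also: stock transfer was 100 nL into about 20 µL; 0% = negative control wells and 100% = wells with untagged competitor protein; inactives centre near -12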
# Sa growth inh – inhibitors of Staphylococcus aureus growth at 42 °C; S. aureus RN4220 growth, OD600, 20 h; hits give low values; 170,000 tested, 0.53% active; relative growth, % (concentration not given with the values); AID 720641;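 active = growth at 42 °C up to 50% and 20 or more points under that at 30 °C, or under 10% at both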;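 also: 300 nL library stock went into each well; scaled to the means of positive and negative controls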
# GIV-Gai inh – blocks GIV peptide binding to rat Galpha-i3; P08753; percent of control (FP), % (test concentration not listed); Galpha-i3/FITC-GIV peptide fluorescence polarization, 90 min; hits give low values; scaled: aluminum fluoride 0%, vehicle 100%; 210,000 tested, 0.42% active;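 active = replicate mean at 85% of control or lower, very high polarization wells dropped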;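 also: wells of about 15 µL received 100 nL stock; the first replicate is given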
# Target sequence (P08753 whole entry, looked up): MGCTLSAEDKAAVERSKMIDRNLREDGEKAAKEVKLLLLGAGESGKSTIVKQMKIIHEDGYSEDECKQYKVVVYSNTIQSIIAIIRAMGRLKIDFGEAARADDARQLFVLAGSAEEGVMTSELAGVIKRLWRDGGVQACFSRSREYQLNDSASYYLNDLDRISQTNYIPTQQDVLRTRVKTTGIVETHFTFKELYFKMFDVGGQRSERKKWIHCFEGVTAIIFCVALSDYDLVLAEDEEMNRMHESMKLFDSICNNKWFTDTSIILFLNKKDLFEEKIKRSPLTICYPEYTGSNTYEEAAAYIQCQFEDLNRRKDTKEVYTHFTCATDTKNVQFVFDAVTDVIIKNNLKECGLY
# Sa growth inh second temp – second read-out of Sa growth inh, no call of its own (marks repeat the call); relative growth, %; measured here: growth at 30 °C;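 optical density after 20 h as mean of two plates; 100% = untreated growth and lower means inhibition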
# * hit, by the source's call; · = not tested or not shown.
SMILES,HCMV UL50-53 inh,Sa growth inh,Sa growth inh second temp,GIV-Gai inh
Cc1ccc(NC(=O)CSC2CCS(=O)(=O)C2)cc1Cl (stereo not drawn),7,91,81,104
C/C(=N\N=C(/N)SC1CC(=O)N(C)C1=O)c1ccc(F)cc1 (stereo not drawn),1,105,112,104
Cc1cc(OCC(=O)N(C(C)C)C(C)C)cc(C)c1Br,12,100,89,99
CCOC(=O)c1c(NC(=O)CCCc2nc(-c3cccnc3)no2)sc(C)c1C,1,·,·,105
COc1cc(CCNC(=O)c2cnn3ccccc23)cc(OC)c1OC,-2,114,92,108
O=C(COc1ccc(S(=O)(=O)N2CCOCC2)cc1Cl)N1CCOCC1,12,92,89,98
N#Cc1nc(-c2ccc(S(=O)(=O)N3CCCCC3)cc2)oc1N1CCOCC1,-26,·,·,101
Cc1ccc2oc(C(=O)Nc3nnc(CC(C)C)s3)cc(=O)c2c1,-61,100,83,102
FC(F)(F)c1cc(C(F)(F)F)n2[nH]c(=S)nc2n1,-88,85,80,108
Cc1ccccc1NC(=O)COC(=O)c1ccccc1C(=O)c1ccccc1,-27,100,85,·
Cc1ccc(-n2cc(-c3ccccc3)c3c(=O)[nH]cnc32)cc1,·,57,62,103
O=C(CNC(=O)c1cccs1)c1ccccc1,-24,122,81,·
CCc1ccc(OCC(=O)N(Cc2ccc(C)cc2)Cc2ccco2)cc1,2,84,68,107
CCC(C)NC(=O)CCC(=O)N1Cc2ccccc2Oc2ncccc21 (stereo not drawn),·,108,105,106
CCCCc1c(COC)nc(N)[nH]c1=O,-10,123,89,101
Nc1nnnn1/N=C/c1cccc(Br)c1,-35,127,102,99
Cn1c(C(=O)NCc2ccccn2)cc2c(=O)n(C)c3ccccc3c21,-135,102,80,110
Cc1ccc(NC(=O)C2CC(=O)N(Cc3ccccc3)C(=Nc3ccccc3)S2)c(C)c1 (stereo not drawn),-1,89,76,·
O=S(=O)(c1c(F)cccc1F)N1CCN(Cc2c(O)ccc3ccccc23)CC1,-7,76,89,·
CC(C)CCN1C(=O)c2ccc(C(=O)C(C#N)c3ccccn3)cc2C1=O (stereo not drawn),-24,87,100,·

# Overlap with the part before: 6 compounds; new compounds follow.
SMILES,HCMV UL50-53 inh,Sa growth inh,Sa growth inh second temp,GIV-Gai inh
CCCCc1c(COC)nc(N)[nH]c1=O,-10,123,89,101
Nc1nnnn1/N=C/c1cccc(Br)c1,-35,127,102,99
Cn1c(C(=O)NCc2ccccn2)cc2c(=O)n(C)c3ccccc3c21,-135,102,80,110
Cc1ccc(NC(=O)C2CC(=O)N(Cc3ccccc3)C(=Nc3ccccc3)S2)c(C)c1 (stereo not drawn),-1,89,76,·
O=S(=O)(c1c(F)cccc1F)N1CCN(Cc2c(O)ccc3ccccc23)CC1,-7,76,89,·
CC(C)CCN1C(=O)c2ccc(C(=O)C(C#N)c3ccccn3)cc2C1=O (stereo not drawn),-24,87,100,·
O=C1c2ccccc2C(=O)C1c1cc(=O)[nH]c2c1ccc1ccccc12,·,73,79,104
O=C(Cc1ccccc1)NCc1ccc(F)cc1,-3,98,93,102
CC(C)N1CCNCC1,-9,87,84,95
O=c1[nH]c(O)c(C=NCc2ccc3c(c2)OCO3)c(=O)[nH]1,-29,96,87,106
NNC(=O)c1cc2sccc2s1,-46,98,71,103
COc1ccccc1Cc1nc2ccccc2nc1SCC(=O)N1CCN(c2ccccc2)CC1,·,93,90,100
CC1=C(C)N(c2ccccc2)NC(=S)S1,-15,88,91,·
Cn1c(-c2ccccc2)c(C(=O)COC(=O)c2ccc(C#N)cc2)c2ccccc21,-9,85,87,·
O=c1c(S(=O)(=O)c2cccc(F)c2)c[nH]c2c(F)c(Cl)ccc12,-25,·,·,101
Fc1cccc(F)c1-c1nc(-c2ccncc2)no1,·,104,88,101
Clc1ccc(OCc2noc(-c3ccoc3)n2)c(Cl)c1,-8,107,52,102
Cc1cc2c(cc1S(=O)(=O)N1CCOc3ccccc31)n(C)c(=O)n2C,-6,95,80,98
CCCN(CCC)c1nn2c(=O)c(C(=O)NCc3cccc(OC)c3)cnc2s1,·,100,86,100
O=C(Cn1c(S(=O)(=O)Cc2ccccc2)nc2ccccc21)NC1CC1,-19,131,106,103
CCc1nn(CC(=O)NCCc2c[nH]c3ccccc23)c(=O)c2cc3occc3n12,-16,105,83,102
O=C(NCc1ccccc1Cl)c1ccc(NC(=O)N2CCCCc3ccccc32)cc1,·,81,93,100
Cc1cccc(NC(=O)CN2C(=O)c3ccccc3Sc3ncccc32)c1C,·,106,93,101
Cc1ccc(CNC(=O)C2(O)c3ccccc3NC(=O)N2c2ccc(C)c(C)c2)cc1 (stereo not drawn),·,109,85,97
Cc1cc(C)nc(NS(=O)(=O)c2ccc(NS(=O)(=O)CC34CCC(CC3=O)C4(C)C)cc2)n1 (stereo not drawn),8,111,93,·
Cc1ccc(C)c(NC(=O)N2Cc3c(sc4c3CCN(C)C4)-n3cccc3C2c2ccc(F)cc2)c1 (stereo not drawn),-8,·,·,102
CC(C)c1n[nH]c2c1CCCC2,-19,81,36,96
Cc1nc(-c2cc(C#N)c(SCCC(=O)OC(C)(C)C)nc2C)cs1,-1,100,92,111
CN(C(=O)CSc1ccccc1C(=O)O)c1ccccc1,-7,111,90,·
COC(=O)c1cc(S(=O)(=O)NC2CCCC2)cn1C,·,104,99,108
COc1cc(OC)c(NC(=O)c2c(-c3ccc(C)cc3)nnc3ccccc23)cc1Cl,-19,·,·,96
CN(C)c1ccc(/C=C/C=N/N=c2/sc3ccccc3n2C)cc1,-11,94,95,98
O=S(=O)(NCC(O)c1ccccc1)c1cc(Cl)sc1Cl (stereo not drawn),-9,115,94,97
CCCn1c(=O)n(C)c(=O)c2c(SCC(=O)/C(C#N)=C(\C)N)nc(CC(C)C)nc21,-28,74,96,·
CC1(C(=O)NCc2ccc(Cl)cc2)Cn2c(cc3ccsc32)C(=O)N1C1CC1 (stereo not drawn),-30,·,·,107
O=C(CCN1CCN(Cc2ccc3c(c2)OCO3)CC1)N1N=CCC1(O)C(F)(F)F (stereo not drawn),-19,83,95,·
Cc1ccc2c(Cl)cc(Cl)c(OCC(=O)N3CCc4ccccc43)c2n1,-32,44,0,·
CCc1ccc(-c2cc(C)no2)cc1S(=O)(=O)NCc1ccc(OC)cc1,·,111,87,97
O=C(O)C(F)(F)C(NCc1ccccc1)c1ccccc1 (stereo not drawn),-20,127,84,·
COCC(=O)N1CCc2c([nH]c3ccc(OC)cc23)C1c1ccc(F)cc1 (stereo not drawn),-11,·,·,97
COc1ccc(-c2nc3ccccc3o2)cc1NC(=O)C(C)Oc1ccc(Cl)cc1Cl (stereo not drawn),8,107,90,105
O=C(NC1CC(=O)N(c2ccc(Cl)cc2)C1)C1CCCCC1 (stereo not drawn),·,108,89,99
COc1ccccc1CNC(=O)CCn1c(=O)c2ccccc2n(CC(=O)Nc2ccc(C)cc2C)c1=O,-27,109,92,107
CCCCN(C)S(=O)(=O)c1cccc2cccnc12,·,99,77,101
Cc1cccc(Nc2cc(C)nc3nc(-c4ccccc4)nn23)c1,0,83,95,110
COc1ccc(CNC(C)C(=O)NC2CCCCC2C)cc1 (stereo not drawn),-9,86,91,·
CC(C)c1ccc(C2SCC(=O)N2C)cc1 (stereo not drawn),-7,107,101,·
c1ccc(CNc2nc(NC3CCCCC3)nc(N3CCOCC3)n2)cc1,-12,95,75,·
N#Cc1ccc(S(=O)(=O)N2CCC(Oc3cccc(C(F)(F)F)c3)CC2)cc1,-14,85,87,93
CN1CCN(C(=O)c2cc(-c3cccnc3)on2)CC1,11,·,·,99
CSc1nnc(C2CCCN2)n1C (stereo not drawn),5,104,77,101
Clc1nc(Cl)nc(Nc2ccccc2)n1,6,90,101,·
CC1CCc2noc(NC(=O)c3ccccc3[N+](=O)[O-])c2C1 (stereo not drawn),-2,82,75,112
CN(C)c1ccc(C(C#N)=C(C#N)C#N)cc1,-37,93,58,·
CCCNC(=O)c1ccc2c(=O)n(-c3cccc(OC)c3)c(SCC(=O)c3c(C)[nH]c4ccccc34)nc2c1,-13,·,·,102
Cc1ccc2c(CC(=O)N(Cc3ccc(Cl)cc3)Cc3ccco3)coc2c1,9,101,85,108

# Additional entries:
SMILES,HCMV UL50-53 inh,Sa growth inh,Sa growth inh second temp,GIV-Gai inh
CC1C(=O)C(C)C(c2ccco2)NC1c1ccco1 (stereo not drawn),-1,99,95,104
O=S(=O)(c1ccc(-c2nnc(C3CCC3)o2)s1)N1CCOCC1,-47,·,·,104
Cc1cc(C)c(C)c(OCC(=O)N(Cc2nc(-c3ccccc3)no2)C2CCCCC2)c1,-14,81,86,105
CC(C)N(Cc1ccccc1)S(=O)(=O)c1ccccc1,-20,94,91,101
C(=C\c1ccccc1)/CSc1nnnn1-c1ccccc1,-16,84,88,·
COc1ccc(C(=O)NCCN2CCOCC2)c(OC)c1,-20,79,83,107
O=C(O)c1ccc2c(c1)N(Cc1ccc(F)cc1)C(=O)c1ccccc1S2=O (stereo not drawn),·,112,88,103
Cc1ccc(Cl)cc1NC(=O)c1ccc2nc(CCc3ccccc3)oc2c1,·,75,89,100
CC1(C(=O)Nc2ccccc2N2CCOCC2)Cc2ccccc2C(=O)O1 (stereo not drawn),-34,102,99,·
O=C(Nc1nnc(S(=O)(=O)N2CCCCCC2)s1)c1cccc(Br)c1,-16,96,58,104
CC(=O)Oc1cc2c(cc1Br)C1CCC3(C)C(OC(C)=O)CCC3C1CC2 (stereo not drawn),·,135,86,98
N=C1C(c2ccccc2)=C(O)CN1NC(=O)CSc1nc2ccccc2[nH]1,0,102,87,·
CCN1CCN(S(=O)(=O)c2ccc3c(c2)N(C(C)=O)CCCS3)CC1,-14,·,·,97
CS(=O)(=O)c1ccc2nc(NC(=S)NC(=O)c3cc4cc([N+](=O)[O-])ccc4s3)sc2c1,-11,·,·,100
Cc1nc(-c2cc(-c3nc(-c4ccc(C(C)(C)C)cc4)no3)no2)cs1,2,104,95,98
CC(NC(=O)C1C2C=CC(C2)C1C(=O)O)C12CC3CC(CC(C3)C1)C2 (stereo not drawn),-6,122,94,103
O=c1cc(Nc2cccc(O)c2)c2ccccc2o1,7,84,34,103
Cc1c(C(=O)N2CC(C)OC(C)C2)oc2ccccc12 (stereo not drawn),-14,101,109,109
O=c1c(-c2ccccc2)c(O)c2ccccc2n1-c1ccccc1,2,137,114,105
Cc1cccc(N=C2NC(=O)/C(=C/c3ccc(F)cc3)S2)c1C,·,96,101,101

# Some entries already given, reduced to GIV-Gai inh, HCMV UL50-53 inh and Sa growth inh second temp.
Molecule	GIV-Gai inh	HCMV UL50-53 inh	Sa growth inh second temp
CS(=O)(=O)c1ccc2nc(NC(=S)NC(=O)c3cc4cc([N+](=O)[O-])ccc4s3)sc2c1	100	-11	·
Cc1nc(-c2cc(-c3nc(-c4ccc(C(C)(C)C)cc4)no3)no2)cs1	98	2	95

# (continued)
SMILES,HCMV UL50-53 inh,Sa growth inh,Sa growth inh second temp,GIV-Gai inh
COC(=O)CC(=O)CSc1nc2cc(C(=O)NCC(C)C)ccc2c(=O)n1CCc1ccccc1,·,97,84,104
Cc1cccc(C)c1NC(=O)C(C)n1nc(C)c(Cc2ccccc2)c1C (stereo not drawn),15,·,·,99
COc1cc(C2C(C#N)=C(N)Oc3n[nH]c(-c4ccc5c(c4)OCO5)c32)cc(OC)c1O (stereo not drawn),-59,·,·,111
CCOc1ccc2nc(SCC(N)=O)[nH]c2c1,-36,84,92,·
O=C1/C(=C/c2cccc(F)c2)COc2ccccc21,-28,98,93,·
Cn1c(=O)c2c(ncn2CC(=O)NCc2ccco2)n(C)c1=O,·,91,85,102
Cc1cc(C(=O)Nc2cnn(Cc3ccccc3C)c2)no1,-3,91,72,95
CCCCNc1ncc2c(n1)c(=O)c(C#N)c1[nH]c3ccccc3c(=O)n12,-103,124,101,·
COC(=O)c1sc(-c2ccc(Cl)cc2)cc1NC(=O)c1ccc2nsnc2c1,-22,94,83,100
CCN1CCN(CCCNC(=O)C(C)N2C(=O)CCCc3ccccc32)CC1 (stereo not drawn),2,·,·,104
CCOc1ccc(NC(=O)Cn2c(=O)n(Cc3ccc(C(=O)NCc4ccc(C)cc4)cc3)c(=O)c3ccccc32)cc1,-14,95,91,106
CCOc1ccc(C=C2C(=O)N(CC)C(=S)N(CC)C2=O)c(O)c1,1,109,106,·
C(=C\c1ccccc1)/CN1CCNCC1,-21,94,87,·
Cc1cc(C2(c3cc(C)c(N)c(C)c3)CCCCC2)cc(C)c1N,·,87,41,98
O=S(=O)(Nc1ccccc1NS(=O)(=O)c1ccc(F)cc1)c1ccc(F)cc1,-13,31,16,·
O=C(CSc1oc(-c2ccccc2)nc1S(=O)(=O)c1ccccc1)Nc1ccc(F)cc1,·,106,73,97
CCc1ccc(N2CN(CCc3ccccc3)CNC2=S)cc1,-21,99,84,97
Cn1c(C(=O)Nc2ccc(F)cc2F)cc2c(=O)oc3ccccc3c21,-14,·,·,107

# 3 structures out of the list, arranged by length of the SMILES, high to low:
SMILES,HCMV UL50-53 inh,Sa growth inh,Sa growth inh second temp,GIV-Gai inh
O=C(CSc1oc(-c2ccccc2)nc1S(=O)(=O)c1ccccc1)Nc1ccc(F)cc1,·,106,73,97
O=S(=O)(Nc1ccccc1NS(=O)(=O)c1ccc(F)cc1)c1ccc(F)cc1,-13,31,16,·
Cc1cc(C2(c3cc(C)c(N)c(C)c3)CCCCC2)cc(C)c1N,·,87,41,98

# Record cards, as listed above. Order of screens: HCMV UL50-53 inh	Sa growth inh	Sa growth inh second temp	GIV-Gai inh
# COc1cc(CCNC(=O)c2cnn3ccccc23)cc(OC)c1OC is listed with -2	114	92	108
# O=C(COc1ccc(S(=O)(=O)N2CCOCC2)cc1Cl)N1CCOCC1 is listed with 12	92	89	98

# Source: PubChem
